# GALR2 agonist: GALR2 receptor agonists, primary screen, cell-based. GALR2-expressing cells, agonist activation read-out. activation, %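 (tested at 5 µM)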. 140,000 compounds, 0.48% hits. Galanin receptor type 2 (Homo sapiens), O43603;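 active = above mean plus 3 SD of all compounds, about 5% in these data, not always enough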;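 also: 0% = vehicle buffer wells and 100% = reference agonist at full effect; tested in CHO reporter cells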
# Target sequence (O43603 whole entry, looked up): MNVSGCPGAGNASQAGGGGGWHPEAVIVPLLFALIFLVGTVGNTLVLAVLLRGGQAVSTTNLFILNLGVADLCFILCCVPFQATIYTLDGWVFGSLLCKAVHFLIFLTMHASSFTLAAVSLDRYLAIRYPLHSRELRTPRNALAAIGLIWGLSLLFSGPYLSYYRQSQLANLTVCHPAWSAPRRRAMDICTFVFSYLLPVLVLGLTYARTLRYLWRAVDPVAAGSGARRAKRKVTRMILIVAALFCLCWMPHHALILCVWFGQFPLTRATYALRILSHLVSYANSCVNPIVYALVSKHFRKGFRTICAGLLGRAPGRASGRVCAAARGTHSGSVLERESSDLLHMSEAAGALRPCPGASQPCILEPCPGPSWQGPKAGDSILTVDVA
# INS promoter inh: inhibitors of insulin promoter-driven GFP, primary screen, imaging, TRM-6 cells (human fetal islet line), eGFP reporter, cell count; AID 1273, 2008; 130,000 compounds, 0.9% hits; reporter expression induced with tamoxifen; inhibition, % at 2 µM;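 active = inhibition above the mean plus 3 SD, with well images judged a real hit on visual review, cut at about 60% in these data, passing the limit was not always enough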
# HSV augment: enhancers of HSV replication in host cells, fold increase, host cell viability; HSV replication augmentation in cells; maximum fold increase; 220,000 compounds, 0.005% hits; AID 1956, 2009;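 active = peak rise of 1.5-fold or more in the series; tested in PC3 cells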;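 also: first round at 10 µM; read as green reporter fluorescence; hits show the peak of a series up to 25 µM; 1 = signal of infected wells without compound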
# RGS16-Gao: modulators of RGS16 binding to Galphao, primary screen, biochemical, human proteins, multiplexed bead flow cytometry | bead-based flow cytometry RGS16-Galphao binding, fluorescence; actives lie on both sides | 220,000 compounds, 0.38% hits | Regulator of G-protein signaling 16 (Homo sapiens) + Guanine nucleotide-binding protein … | binding response (% of control), % at 10 µM;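 active = below 25% or above 175%, edge rows of some plates excepted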;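 also: Galphao activated by GDP with aluminum fluoride before binding; 100% = wells without compound and 0% = beads without RGS; some results beyond the cut were filed as inactive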
# Target sequence (O15492 whole entry, looked up): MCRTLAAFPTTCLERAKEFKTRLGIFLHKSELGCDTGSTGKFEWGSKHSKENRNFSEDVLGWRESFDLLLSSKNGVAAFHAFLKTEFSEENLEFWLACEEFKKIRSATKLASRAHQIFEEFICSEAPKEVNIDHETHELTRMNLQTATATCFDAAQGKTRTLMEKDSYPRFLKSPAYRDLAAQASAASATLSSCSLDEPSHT
# Target sequence (P09471 whole entry, looked up): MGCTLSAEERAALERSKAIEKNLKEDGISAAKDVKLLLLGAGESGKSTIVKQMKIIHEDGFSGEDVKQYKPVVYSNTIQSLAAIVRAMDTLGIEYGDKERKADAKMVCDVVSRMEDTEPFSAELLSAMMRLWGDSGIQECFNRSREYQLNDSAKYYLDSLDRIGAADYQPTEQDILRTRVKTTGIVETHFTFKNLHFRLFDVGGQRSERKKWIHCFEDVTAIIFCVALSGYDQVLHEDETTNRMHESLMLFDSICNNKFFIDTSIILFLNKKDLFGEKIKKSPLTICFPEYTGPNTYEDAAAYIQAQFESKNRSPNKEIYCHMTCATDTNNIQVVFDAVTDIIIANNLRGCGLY
# PKD1 inh: inhibitors of human PKD1 kinase, biochemical, fluorescence polarization. PKD1 kinase fluorescence polarization assay. AID 797, 2007. inhibition, %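 (about 10 µM by stock and volumes)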. Serine/threonine-protein kinase D1 (Homo sapiens), Q15139. 200,000 compounds, 0.056% hits;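 active = inhibition of 50% or more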;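 also: controls were vehicle for no effect and a reference inhibitor for full effect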
# INS promoter inh cell count: further read-out of INS promoter inh, marked with its call; normalized cell count, %; measured here: cell count, toxicity; reference of the scale not given here;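 cells exposed to compound for 48 h; stained nuclei by imaging scaled within each plate; lower means fewer cells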
# HSV augment primary fold: also measured in HSV augment; calls as there; fold increase; compound at 10 µM; measured here: primary screen fold increase 10 uM; tested in PC3 cells;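 GFP signal in the first replicate; 1 = infected wells without compound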
# * = called active by the depositor; i = inactive; x = no result given; [ ] = another dose, or the depositor's remark.
structure	GALR2 agonist	INS promoter inh	INS promoter inh cell count	HSV augment	HSV augment primary fold	RGS16-Gao	PKD1 inh
COc1ccc(N2CCN(c3oc(COc4ccc(Cl)cc4Cl)nc3C#N)CC2)cc1	-1.5	-7	116	i	0.78	102	3
COc1cccc(NC(=O)C(=O)NCc2ccncc2)c1	x	30	132	i	0.91	98	6
CCOC(=O)C/C(C)=N/NC(=O)c1cccs1	-3.1	x	x	i	0.84	105	-7
Cc1cc(C)nc(/N=C2\NC(=O)CC(C(=O)O)N2c2ccc(Oc3ccccc3)cc2)n1 (centres undefined)	-2.9	35	115	i	0.94	98	4
CCCNC(=O)CN(Cc1ccco1)S(=O)(=O)c1ccc(OCC)cc1	-1.7	8	100	x	x	109	12
CC(=O)Nc1ccc2nc(-c3cccnc3)[nH]c2c1	-1.2	24	70	x	x	99	-8
CCCCn1c(N)c(N(CCC(C)C)C(=O)COC(=O)c2ccco2)c(=O)[nH]c1=O	-0.5	51	115	i	0.9	101	-5
CCOc1cccc(/C=C/c2cc(C(=O)O)c3ccccc3n2)c1OC	x	x	x	i	1	83	x
O=C(CSc1nccc(-c2cccs2)n1)Nc1cccc(Cl)c1Cl	x	x	x	i	1.1	104	x
COc1ccc(-c2cc(=NC(CC(C)C)C(=O)O)c3cc(C)ccc3o2)cc1 (centres undefined)	0.4	3	90	i	0.89	99	-17

# Quoted at random: 2 compounds from above
structure	GALR2 agonist	INS promoter inh	INS promoter inh cell count	HSV augment	HSV augment primary fold	RGS16-Gao	PKD1 inh
Cc1cc(C)nc(/N=C2\NC(=O)CC(C(=O)O)N2c2ccc(Oc3ccccc3)cc2)n1 (centres undefined)	-2.9	35	115	i	0.94	98	4
CCOc1cccc(/C=C/c2cc(C(=O)O)c3ccccc3n2)c1OC	x	x	x	i	1	83	x

# Next entries
structure	GALR2 agonist	INS promoter inh	INS promoter inh cell count	HSV augment	HSV augment primary fold	RGS16-Gao	PKD1 inh
Cc1sc2nc(SCc3ccc(C(=O)O)cc3)n(Cc3ccco3)c(=O)c2c1C	x	x	x	i	1	100	x
O=C(OCc1nnc(-c2ccccc2)o1)c1ccc(Cl)cc1	x	20	111	i	0.92	107	3
CC(=O)Oc1ccc(C(=O)Nn2cnnc2)cc1	-3.7	12	65	i	1	x	1
COc1ccccc1C(c1nnnn1C(C)(C)C)N1CCCCCC1 (centres undefined)	-0.4	-18	94	i	0.99	101	-11
O=C(CCCn1c(=O)[nH]c2cc(Cl)ccc2c1=O)NCCCN1CCCC1	-2.7	8	99	i	0.95	102	-4
COc1ccccc1NC(=O)c1cc(S(=O)(=O)N2CCOCC2)ccc1Cl	-0.8	47	71	i	1	101	-3
O=C(O)c1c(-c2ccc(Cl)cc2)cn2ccccc12	x	x	x	i	0.93	101	8
Cc1ccc(S(=O)(=O)NNC(=O)Nc2ccc(Cl)c(Cl)c2)cc1	x	x	x	i	1.1	104	0
Cc1ccc(C(=O)NCc2ccccc2)cc1Br	-0.8	15	118	x	x	102	-7
Cc1cc(C)nc(SCc2ccc(C(=O)N/N=C/c3cccc(O)c3O)cc2)n1	-1.1	-43	58	i	0.58	94	-2
O=C1C(Cl)=C(N2CCN(c3ccccc3[N+](=O)[O-])CC2)C(=O)c2ccccc21	-0.7	50	89	i	0.77	99	-13
CN(C)c1nc(N)nc(CSc2n[nH]c(-c3ccccc3)n2)n1	-1.8	-19	105	i	0.93	102	3
Cc1ccccc1Cn1nc(C)c(NC(=O)c2sc3ccccc3c2Cl)c1C	-0.4	x	x	i	1.1	105	0
Cc1ccc(SCc2[nH]nc3c2C(c2ccc(C)o2)C(C#N)=C(N)O3)cc1 (centres undefined)	-1.2	18	117	i	1.2	97	-12
CC(=O)Nc1ccc(C(=O)CSc2nnnn2C(C)C)cc1	-2.3	25	117	i	0.92	85	-7
CCn1nc(NC(=O)C2CCCO2)c2cc3cccc(C)c3nc21 (centres undefined)	x	x	x	i	0.96	98	x
O=C(c1ccccc1Oc1ccccc1)N1CCN(c2ccc(F)cc2)CC1	-2.7	-93	97	i	0.93	102	-17
CCOc1ccc(/C=C/c2c([N+](=O)[O-])c(=O)n(C)c(=O)n2C)cc1	x	x	x	i	0.92	108	3
COCCCNC(=O)CCn1c(=O)c2ccccc2n(CC(=O)Nc2cc(Cl)ccc2C)c1=O	-1.3	x	x	i	1	100	1
CCNc1nc(NCC)nc(N/N=C/c2ccc(OC)cc2)n1	x	x	x	i	0.79	82	x
COc1ccc(NC(=O)Cn2nnc(C(=O)NCc3ccccc3)c2N)cc1Cl	0.0	x	x	i	0.69	102	2
CC1CCN(c2ccc(C(=O)Nc3nnc(C4CC4)s3)cc2[N+](=O)[O-])CC1	-1.3	21	71	i	1	131	-5
COC(=O)c1cc(NCc2ccccc2F)ccc1N1CCOCC1	1.0	x	x	i	0.68	107	-7
O=C(Oc1ccc(Cl)c2cccnc12)c1cccc([N+](=O)[O-])c1	0.0	-52	52	i	0.94	59	8
Cc1cc(C)n(-c2ccc([N+](=O)[O-])cc2)n1	-1.2	50	107	i	0.93	102	-2
CC(/C=N/NC(=O)c1ccccc1F)c1ccccc1 (centres undefined)	x	x	x	i	0.91	108	x
CSc1ccc(C(=O)C2CCCN(C(=O)c3cc4cc(F)ccc4[nH]3)C2)cc1 (centres undefined)	x	-75	87	i	1.1	104	-3
C=CCOc1cccc(C(=O)N2CCCC(CNS(=O)(=O)c3cccs3)C2)c1 (centres undefined)	x	x	x	i	0.93	128	-3
O=C(c1cccc(Cl)c1)N(Cc1cccs1)C1CCS(=O)(=O)C1 (centres undefined)	-1.1	20	95	i	0.99	103	-4
CC(=O)Nc1ccc(NC(=O)c2ccccc2Sc2ccc([N+](=O)[O-])cc2Cl)cc1	-0.9	9	90	i	1	101	-6

# Grouped by structure, the compounds so far containing fluorine.
structure	GALR2 agonist	INS promoter inh	INS promoter inh cell count	HSV augment	HSV augment primary fold	RGS16-Gao	PKD1 inh
O=C(c1ccccc1Oc1ccccc1)N1CCN(c2ccc(F)cc2)CC1	-2.7	-93	97	i	0.93	102	-17
COC(=O)c1cc(NCc2ccccc2F)ccc1N1CCOCC1	1.0	x	x	i	0.68	107	-7
CC(/C=N/NC(=O)c1ccccc1F)c1ccccc1 (centres undefined)	x	x	x	i	0.91	108	x
CSc1ccc(C(=O)C2CCCN(C(=O)c3cc4cc(F)ccc4[nH]3)C2)cc1 (centres undefined)	x	-75	87	i	1.1	104	-3

# The list goes on:
structure	GALR2 agonist	INS promoter inh	INS promoter inh cell count	HSV augment	HSV augment primary fold	RGS16-Gao	PKD1 inh
Cc1cc2nc(SC(C)C(=O)O)[nH]c2cc1C (centres undefined)	-1.1	25	43	i	1	98	-8
O=C(CN1C(=O)C2CC=CCC2C1=O)NC1CCCc2ccccc21 (centres undefined)	-2.1	-83	73	i	0.89	101	-3
C#CCOCCOCCOCCNc1nc(N2CCN(C(=O)Cn3cc(CCO)nn3)CC2)nc(N2CCN(C(=O)[C@H](C(C)C)n3cc(CCO)nn3)CC2)n1	-1.6	-50	52	i	0.86	71	-7
NS(=O)(=O)c1ccc(NC(=O)CN2C(=O)CCC2=O)cc1	x	x	x	i	0.91	93	x
N#CCC(=O)N1CCn2c1nc1ccccc12	-3.4	-14	156	i	1.2	101	-2
CN1c2ccsc2/C(=N/Nc2ccc(F)cc2)CS1(=O)=O	x	x	x	i	0.99	98	-2
CCOc1c(Br)cc(CNCc2cccs2)cc1OC	0.3	x	x	i	1	92	-11
CCc1ccc(NC(=S)Nn2cnnc2)cc1	x	x	x	i	0.95	100	-1
O=C1C2C3CCC(C3)C2C(=O)N1CNc1ccccc1 (centres undefined)	-0.9	25	146	i	0.98	108	-5
COc1cc2[nH]c(=S)n(NC(=O)CC(C)C)c(=O)c2cc1OC	-2.0	70	134	i	0.93	99	-2
Cn1cc([N+](=O)[O-])c(C(=O)Nc2ccc(-c3nc4ccccc4o3)cc2)n1	x	x	x	i	0.42	105	x
CC(C)(C)CN1C(=O)C(=O)NC[C@H]1Cc1cccc2ccccc12	x	x	x	i	0.91	98	x
NC(=O)c1ccc(NC(=O)c2ccc3c(c2)OCO3)cc1	-2.6	13	65	i	1.1	102	-7
O=C(NCCN1CCOCC1)c1noc2c1CCc1ccccc1-2	-0.6	x	x	i	0.91	102	-6
CC(C)(C)OC(=O)N1CCC[C@@H]1C(=O)N1CCC(C(=O)O)CC1	-1.9	x	x	i	0.97	106	-3
CCOc1cc(/C=C(\C#N)C(=O)NCC2CCCO2)ccc1O (centres undefined)	-1.3	-14	60	i	0.74	130	-9
CC(C)c1ccccc1OCCNC(=S)NC(=O)c1cccnc1	x	x	x	i	0.89	104	-3
COc1ccc(Nc2nc3ccccc3nc2NS(=O)(=O)c2cccs2)cc1	-0.7	0	149	i	0.9	96	-9
O=C(c1cccnc1)N1CCN(S(=O)(=O)c2ccc3ccccc3c2)CC1	-1.8	21	98	i	0.9	104	-6
Cc1ccc(N)cc1CN1CCCC1=O	-1.3	-6	113	i	0.91	105	-5
O=S(=O)(NCc1ccccc1)NCc1ccccc1	x	38	76	x	x	99	1
NC(=O)CSc1nnc(-c2ccccn2)n1Cc1ccco1	x	x	x	i	1	101	x
O=C(OCC(=O)N1CCN(C(=O)c2ccco2)CC1)C1=COCCO1	-2.6	-4	115	i	0.88	90	0
O=C1Nc2ccccc2/C1=N/N=C/c1cccc(O)c1	x	x	x	i	0.99	107	x
CC(=O)c1c(C(C)=O)c(C)n(-c2ccc(N)cc2)c1C	-0.7	-31	87	x	x	93	-2
CCO[C@@H]1OC(C(=O)N2CCCCCCC2)=C[C@H](c2ccc(C(F)(F)F)cc2)[C@H]1CCCO	x	x	x	x	x	102	-4
CC(=O)NC(Cc1ccccc1)C(C)=O (centres undefined)	x	17	125	i	0.98	97	-1
CCOC(=O)C1CCCN(CC(=O)Nc2cccc(C(C)=O)c2)C1 (centres undefined)	x	x	x	i	0.97	96	-6
c1ccc(C2[C@H]3CN(CC4CCCCC4)[C@H](c4ccccc4)C34CC2(c2cccnc2)C4)cc1 (some centres undefined)	x	x	x	i	0.98	90	x
O=C(CNC(=O)c1ccccc1)NCC(=O)OCC(=O)c1ccccc1	x	x	x	i	0.89	104	-7
Clc1ccc(NC2=NCCC2)cc1Cl	0.3	9	102	i	0.98	104	-3
CC(=O)N1CCCc2cc(S(=O)(=O)N3CCC(C)CC3)ccc21	-1.4	0	62	i	0.93	104	-6
CCOc1ccc(-n2c(COc3ccccc3)nnc2SCC(N)=O)cc1	0.0	17	113	i	0.96	113	-9
CCC(C)(C)NC(=O)C1CCN(S(=O)(=O)c2cccs2)CC1	x	i	113	i	0.92	364*[activator]	-1
Cc1ccc(SCc2cc(=O)[nH]c(/N=C(\N)Nc3ccc(C)c(C)c3)n2)cc1	0.8	-16	89	i	0.73	111	9
COC(=O)N1CC=CC1(C)C(=O)NCc1cc(F)cc(C(F)(F)F)c1 (centres undefined)	-2.9	14	128	i	0.9	104	4
CCc1ccc(OCC(=O)NC(=S)Nc2ccc(C(C)=O)cc2)c(Br)c1	-2.0	4	140	i	1	97	-5
CCN1C(=O)/C(=C/c2cn(C)nc2C)SC1=S	-2.4	-35	62	i	0.68	104	5
Cc1ccc(S(=O)(=O)NC(C)(C)CSc2nnc(Nc3ccccc3)s2)cc1	-2.2	8	94	i	0.83	100	-7
O=C(NC1CCS(=O)(=O)C1)/C(=C\c1ccccc1)NC(=O)c1ccccc1 (centres undefined)	-0.2	6	86	i	0.9	120	3
Cc1ccc(Cl)cc1-n1ncc2c(NNC(=O)c3ccco3)ncnc21	x	-67	185	i	0.86	104	-3

# Five compounds already listed, sorted by their value in HSV augment primary fold, falling.
structure | GALR2 agonist | HSV augment primary fold | RGS16-Gao | PKD1 inh
CCc1ccc(OCC(=O)NC(=S)Nc2ccc(C(C)=O)cc2)c(Br)c1 | -2.0 | 1 | 97 | -5
Clc1ccc(NC2=NCCC2)cc1Cl | 0.3 | 0.98 | 104 | -3
COC(=O)N1CC=CC1(C)C(=O)NCc1cc(F)cc(C(F)(F)F)c1 (centres undefined) | -2.9 | 0.9 | 104 | 4
Cc1ccc(Cl)cc1-n1ncc2c(NNC(=O)c3ccco3)ncnc21 | x | 0.86 | 104 | -3
Cc1ccc(S(=O)(=O)NC(C)(C)CSc2nnc(Nc3ccccc3)s2)cc1 | -2.2 | 0.83 | 100 | -7
